# Screening results deposited in PubChem BioAssay by Sanford-Burnham Center for Chemical Genomics.
# SENP8 block-1 – blocks the human protease SENP8; inhibition, % at 10 µM; AID 2540; Q96LD8; 330,000 compounds, 1.2% hits; purified SENP8, Z-RLRGG-aminoluciferin cleavage, luminescence; in the data active = inhibition above about 50%
# SENP8 block-2 – blocks human SENP8 cleavage of Nedd8 substrate; Q96LD8; recombinant SENP8, Nedd8 substrate fluorescence; inhibition, % at 20 µM; 360,000 compounds, 0.64% hits; AID 602440; in the data active = inhibition mostly above about 40%, no sharp cut-off; inactive = mostly below about 27%
# SENP7 block – inhibitors of human SENP7 protease. Q9BQF6. recombinant SENP7, Z-RLRGG-aminoluciferin luminescence, 40 min. inhibition, % at 5 µM. 330,000 compounds, 1.5% hits. AID 434973;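 active = inhibition above about 50% at the single test dose, limit read from the data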;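 also: plate controls were DMSO with enzyme for no effect and no enzyme buffer wells for full effect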
# NALP3 yeast inh – NALP3 inhibition in yeast. 330,000 compounds, 0.39% hits. inhibition, % at 10 µM. Yeast reconstituted NLRP3/ASC/caspase-1, beta-gal luminescence, 24 h;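 active = inhibition of 50% or more; inactive = inhibition below 50%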;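 also: plate controls were induced DMSO wells for no effect and uninduced yeast grown without galactose for full effect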
# SENP1 inh – SENP1 (human) catalytic domain inhibition; Q9P0U3; recombinant SENP1 catalytic domain, CyPet-SUMO1-YPet FRET cleavage; inhibition, % at 10 µM; 360,000 compounds, 0.21% hits; AID 624204;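 active = inhibition at least 30% at 10 µM, raw YFP signal under a set limit, fluorescence ratio 0.5 to 1.5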;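 also: 0% = enzyme with DMSO and 100% = no enzyme wells; some results filed as inactive read as strong as hits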
# Target sequence (Q9P0U3 419-644 limits assumed): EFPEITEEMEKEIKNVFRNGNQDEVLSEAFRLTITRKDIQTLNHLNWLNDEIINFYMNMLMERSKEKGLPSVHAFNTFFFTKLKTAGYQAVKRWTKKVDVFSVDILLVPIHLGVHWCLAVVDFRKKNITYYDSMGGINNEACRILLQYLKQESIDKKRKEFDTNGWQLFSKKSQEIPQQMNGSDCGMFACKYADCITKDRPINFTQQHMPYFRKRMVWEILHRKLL
#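 Assay system – human recombinant His6-tagged SENP1 catalytic domain enzyme · Input – SENP1 enzyme, 20 pM final · Buffer or medium – Tris pH 8 buffer plus EDTA, NaCl, BME, BSA, NP40, catalase · Schedule – 50 min reaction at room temperature · Technique – FRET read of cyan and yellow fluorescence · Control set – no-enzyme wells low, DMSO-plus-enzyme wells high control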
# HKDC1 inhibitor – blocks human hexokinase HKDC1 activity | 340,000 compounds, 0.16% hits | recombinant HKDC1, G6PDH/diaphorase resazurin coupled fluorescence | AID 493160 | inhibition, % at 20 µM | Q2TB90;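 active = inhibition above about 35% when tested at 20 µM, limit read from the data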;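 also: plate controls were DMSO wells with enzyme for no effect and DMSO wells lacking enzyme for full effect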
# Target sequence (Q2TB90 whole entry, looked up): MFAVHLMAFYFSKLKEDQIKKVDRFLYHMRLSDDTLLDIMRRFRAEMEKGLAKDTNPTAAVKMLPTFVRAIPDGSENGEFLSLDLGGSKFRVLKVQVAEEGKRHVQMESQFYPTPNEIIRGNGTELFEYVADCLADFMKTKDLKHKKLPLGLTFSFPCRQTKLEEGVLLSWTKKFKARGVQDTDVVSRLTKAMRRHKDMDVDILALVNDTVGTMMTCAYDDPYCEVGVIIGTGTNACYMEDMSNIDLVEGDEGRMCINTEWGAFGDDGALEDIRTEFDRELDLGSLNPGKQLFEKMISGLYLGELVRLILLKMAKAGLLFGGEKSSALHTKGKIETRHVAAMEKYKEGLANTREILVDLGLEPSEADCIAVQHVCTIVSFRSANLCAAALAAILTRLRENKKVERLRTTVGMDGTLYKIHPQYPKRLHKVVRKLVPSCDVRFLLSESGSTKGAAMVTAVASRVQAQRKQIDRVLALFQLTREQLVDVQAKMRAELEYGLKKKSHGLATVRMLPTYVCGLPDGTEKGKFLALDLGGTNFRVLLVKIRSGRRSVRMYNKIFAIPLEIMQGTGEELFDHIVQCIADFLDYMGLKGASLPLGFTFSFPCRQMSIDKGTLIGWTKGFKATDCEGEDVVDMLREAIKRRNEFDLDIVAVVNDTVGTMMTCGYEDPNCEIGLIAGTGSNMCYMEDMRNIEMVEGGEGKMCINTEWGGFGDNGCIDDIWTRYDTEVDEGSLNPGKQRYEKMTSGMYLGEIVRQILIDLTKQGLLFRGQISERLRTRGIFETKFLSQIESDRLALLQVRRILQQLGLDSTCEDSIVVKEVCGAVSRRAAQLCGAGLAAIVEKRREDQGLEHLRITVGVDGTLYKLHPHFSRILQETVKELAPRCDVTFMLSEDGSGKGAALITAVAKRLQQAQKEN
#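 Assay system: recombinant HKDC1 hexokinase; detection: coupled resazurin fluorescence, excitation 525 nm, emission 613 nm; benchmarks: DMSO-plus-enzyme-mix negative control, buffer-substituted positive control; compound dosing: single 20 µM dose; schedule: 90 min at room temperature in dark; also added: glucose plus 1 mM ATP as hexokinase substrates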
# PfG6PD inh – PfG6PD (Plasmodium falciparum) enzyme inhibition; 350,000 compounds, 0.78% hits; PfGluPho enzyme, NADPH resazurin-diaphorase fluorescence; inhibition, % at 20 µM;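 active = inhibition reaching at least a set limit at 20 µM in the primary screen, cut at about 59% in these data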;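 also: 0% = DMSO wells with substrate and 100% = DMSO wells lacking glucose-6-phosphate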
# SENP6 inh – blocks the human protease SENP6. Q9GZR1. Recombinant SENP6 catalytic domain, aminoluciferin luminescence. inhibition, % at 10 µM. 330,000 compounds, 1.8% hits. AID 2599;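 active = inhibition above about 50% at the single tested dose, limit read from the data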;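 also: plate controls were DMSO wells with enzyme for no effect and DMSO wells lacking enzyme for full effect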
# * hit, by the source's call; i = inactive; / = not tested or not shown; & = joins results of further samples. The list is partial, so the mix of outcomes need not match the whole.
# The opening 2 records (preview)
SMILES,SENP8 block-1,SENP8 block-2,SENP7 block,NALP3 yeast inh,SENP1 inh,HKDC1 inhibitor,PfG6PD inh,SENP6 inh
CCc1cc2c3c(c(=O)oc2cc1O)CCCC3,2,i,2,24,-141,2,9,-4
Cc1ccc2nc(N3CCN(C(=O)c4cccs4)CC3)c(C#N)cc2c1,-5,-494,-3,14,-62,6,8,-8

# Results, from the start:
SMILES,SENP8 block-1,SENP8 block-2,SENP7 block,NALP3 yeast inh,SENP1 inh,HKDC1 inhibitor,PfG6PD inh,SENP6 inh
CCc1cc2c3c(c(=O)oc2cc1O)CCCC3,2,i,2,24,-141,2,9,-4
Cc1ccc2nc(N3CCN(C(=O)c4cccs4)CC3)c(C#N)cc2c1,-5,-494,-3,14,-62,6,8,-8
N=c1c(C(=O)NCc2ccco2)cc2c(=O)n3ccccc3nc2n1Cc1ccccc1,-4,-472,14,17,-14,-3,18,-3
COc1ccc(C2(CNC(C)=O)CCCC2)cc1OC,9,15,5,15,0,4,-3,-6
CCOCCCNC(=O)Cc1cc(=O)[nH]c(=O)[nH]1,-5,16,1,17,-4,-5,-5,-14
CCOC(=O)c1cc2c(=O)n3ccccc3nc2n(CCCOC)c1=NC(=O)C(C)(C)C,-5,-327,-6,-3,-19,-4,8,-8
O=C(O)c1cc(-c2cccs2)nc2cc3c(cc12)OCCO3,4,-445,-3,6,-16,0,3,6
N#CC1=C(N)Oc2cc(N)ccc2C1C1CC=CCC1 (stereo unspecified),5,-224,9,-12,-20,10,-9,0
CC1Cc2nc(SCC(=O)OCc3ccccc3)n(C)c(=O)c2S1 (stereo unspecified),0,1,-1,59*,-2,-1,25,-12
CC(=O)N1CCC(C(=O)Nc2nc(-c3ccccc3)ns2)CC1,-2,7,-6,-7,-2,-1,7,-7
CC(C)C(c1nnnn1Cc1ccccc1)N(CCCO)Cc1cc2cc3c(cc2[nH]c1=O)OCO3 (stereo unspecified),0,-412,1,-4,-20,5,-6,-14
Cc1ccc(-n2nc(C)c3c(-c4cccs4)c(C#N)c(N)nc32)cc1,0,-325,-11,12,-18,6,-1,-8
CCC1(CC)Nc2ccccc2C(=O)N1c1ccc(NC(C)=O)cc1,2,-165,12,14,2,-6,-14,8
CCCOC(=O)C1=C(C)NC2=C(C(=O)CCC2)C1c1cccc(OC)c1OC (stereo unspecified),-7,-291,-2,13,-97,-6,-3,-22
CCOc1ccc2[nH]c(=O)c(CN(Cc3nnnn3CCc3ccccc3)CC3CCCO3)cc2c1 (stereo unspecified),0,-448,12,30,-23,-5,4,-11
CCCCNC(=O)c1cc2c(=O)n3cccc(C)c3nc2n(Cc2ccncc2)c1=N,7,-344,7,1,-26,-11,47,16
CCN(CC)S(=O)(=O)c1cccc2cc(C(=O)O)c(O)cc12,-6,-256,-4,19,15,3,-46,-7
CN(C(=O)NC(=O)C1=C(N2CCOCC2)/C(=C/c2ccccc2)CC1)S(C)(=O)=O,-3,-285,16,19,-56,-7,9,-24
CCCn1nc(NC(=O)c2ccco2)c2cc3ccc(C)cc3nc21,0,-485,1,19,9,-6,2,1
Cn1c(N)c(S(=O)(=O)c2ccc(Br)cc2)c2nc3ccccc3nc21,0,-326,5,5,-26,2,-8,11
O=C(CN1C(=O)c2cccc3cccc1c23)N1CCN(c2ccc(F)cc2)CC1,0,-220,0,-2,-20,-5,16,-4
CCn1c(O)c(C=Nc2ccccc2)oc1=S,-10,-131,2,20,-20,0,19,-22
CCOCCCn1c(=NC(=O)c2cccnc2)c(C(=O)OCC)cc2c(=O)n3ccccc3nc21,3,-483,5,13,-27&-24,-6&-8,12&22,-12
COC(=O)c1cc2nc(-c3ccc(OC)cc3)cc(C(F)(F)F)n2n1,-4,-427,-2,9,-18,-2,-12,4
C=CCc1c(C)c(C#N)c2nc3ccccc3n2c1NCCN(C)C,0,-391,4,54*,10,-5,-7,9
CCC1Oc2nc(SC)nnc2-c2ccccc2N1C(=O)c1ccccc1 (stereo unspecified),-5,-81,-8,7,26,-8,-6,2
COc1ccc(-c2cc(C(F)F)n3ncc(C(=O)NCCCN4CCCC4=O)c3n2)cc1,5,-379,2,6,-56,-2,-3,-8
O=C(c1cc2nc(-c3ccco3)cc(C(F)(F)F)n2n1)N1CCCCCC1,-7,-271,9,24,-62,-1,-2,-33
Cc1c2ccccc2c(C)c2c1ccc1ccccc12,7,-54,10,65*,-6,13,32,0
Cc1ccc(C2C=C(c3ccc4c(c3)OCO4)Nc3ncnn32)cc1 (stereo unspecified),-3,-404,5,12,-25,-2,-13,7
N=c1c(S(=O)(=O)c2ccc(Cl)cc2)cc2c(=O)n3ccccc3nc2n1CCN1CCOCC1,1,-288,-1,7,-30,1,15,1
Cc1cccn2c(=O)c3cc(C(=O)NC4CCCC4)c(=N)n(C4CCCC4)c3nc12,5,i,9,6,-19,-22,82*,0
Cc1sc2nc3ccc(N4CCCC4)nn3c(=O)c2c1C,-7,-421,4,14,-41,8,42,-10
N#CC1=C(N)C(C#N)(C#N)[C@H](c2ccoc2)[C@H]2CN(Cc3ccccc3)CC=C12,84*,-498,77*,22,-14,14,-3,91*
COC(=O)C1=CN(C(C)C)C=C(C(=O)OC)C1c1cccc(OC)c1,6,-400,-1,5,11,1,-24,-31
COCCCn1c(=NC(=O)c2ccncc2)c(C#N)cc2c(=O)n3cccc(C)c3nc21,3,-251,4,2,-18,0,-7,8
CN1CCN(C(=O)NC2CCCN2S(=O)(=O)c2ccc(Cl)cc2)CC1 (stereo unspecified),-12,34,-2,28,2,-8,2,25
CCc1cc(=O)oc2cc(OC(C)=O)cc(OC(C)=O)c12,-4,-456,2,10,-131,-2,22,-12
CCCn1nc(NC(=O)CC(C)C)c2cc3ccccc3nc21,8,-206,-1,18,-34,-1,16,3
Cc1ccc([C@@H]2C3COCC=C3C(C#N)=C(N)C2(C#N)C#N)o1 (stereo partly specified),6,-129,1,10,-22,9,4,11

# Quoted from the listing:
# SENP8 block-2, COC(=O)C1=CN(C(C)C)C=C(C(=O)OC)C1c1cccc(OC)c1 = -400
# NALP3 yeast inh, Cc1ccc(-n2nc(C)c3c(-c4cccs4)c(C#N)c(N)nc32)cc1 = 12
# SENP7 block, O=C(CN1C(=O)c2cccc3cccc1c23)N1CCN(c2ccc(F)cc2)CC1 = 0
# SENP8 block-1, Cc1sc2nc3ccc(N4CCCC4)nn3c(=O)c2c1C = -7

# (listing goes on)
SMILES,SENP8 block-1,SENP8 block-2,SENP7 block,NALP3 yeast inh,SENP1 inh,HKDC1 inhibitor,PfG6PD inh,SENP6 inh
CC1CCN(C(c2ccc(N(C)C)cc2)c2nnnn2C(C)(C)C)CC1 (stereo unspecified),-6,12,7,4,7,-5,2,-17
CC(C)OCCCn1c(=NC(=O)c2ccncc2)c(C#N)cc2c(=O)n3ccccc3nc21,-3,-72,4,21,-92,10,-8,-1
Cc1ccc2cc3c(NC(=O)CC(C)C)nn(C)c3nc2c1,-8,-389,8,26,-18,10,0,-10
COc1ccc(-c2cc(C(=O)OC3CCOC3=O)c3ccccc3n2)cc1OC (stereo unspecified),8,-286,3,6,-12,1,-5,4
O=c1[nH]c2cc3c(cc2cc1CN(Cc1cccs1)Cc1nnnn1Cc1ccco1)OCCO3,-9,-460,-4,18,-26,15,32,2
CCCCn1c(SCC(=O)Nc2cccc(OC)c2)nc2ccc(N3CCOCC3)cc2c1=O,3,-252,15,-13,-48,11,13,-10
COC(=O)c1ccc(C(=O)OC)c(N)c1,3,/,11,9,/,/,/,24
COCCN1C=C(C(=O)OC)C(c2ccc3c(c2)OCO3)C(C(=O)OC)=C1,4,-347,-1,7,-57,0,-8,-2
Cn1c(C(=O)N2CCN(C(=O)c3ccco3)CC2)cc2c(=O)n3ccccc3nc21,0,-290,12,21,-97,0,-3,-3
C=C1c2c(Cl)ccc(O)c2C(O)=C2C(=O)[C@]3(O)C(O)=C(C(N)=O)C(=O)[C@@H](N(C)C)[C@@H]3[C@@H](O)C12 (stereo partly specified),13,-42,3,17,32,21,24,2
CCOc1ccc2nc(N3CCOCC3)nc(C)c2c1,-2,i,2,27,-21,0,6,4
CCn1c2ccccc2c2nc3cc(OC)c(OC)cc3nc21,20,-269,1,29,-26,8,15,35
Cc1cc(-c2ccco2)n2c(nc3ccccc32)c1C#N,1,-68,-1,3,-12,-13,-23,4
CC(C)(C)N1C(=O)Cc2c1nc(N)c1c(N)nc(N3CCCCC3CO)c(C#N)c21 (stereo unspecified),97*,i,94*,7,-55,25,89*,93*
CN(C)CCCn1c(N)c(C#N)c2nc(C#N)c(C#N)nc21,-9,-436,-5,6,-27,8,-2,-1
Cc1cc(NCCN2CCOCC2)n2c(nc3ccccc32)c1C#N,0,i,-5,-3,-80,3,-4,-14
Cc1ccc(-c2nc(-c3nccc4ccccc34)oc2-c2ccccc2)cc1,48,-309,81*,-20,-136,-4,40,69*
COCCOC(=O)C1=C(C)NC2=C(C(=O)CC(c3cccs3)C2)C1c1ccsc1 (stereo unspecified),-8,-431,9,18,-39,-2,3,1
CCCOc1ccccc1-c1nc2c([nH]1)c(=O)[nH]c(=O)n2C,-4,i,10,4,-28,-1,-10,0
COCCN(CCOC)c1cc(C)c(C#N)c2nc3ccccc3n12,-1,i,12,6,-22,-11,-17,-4

# Only SENP1 inh, for three of the compounds above:
smiles	SENP1 inh
CCC1(CC)Nc2ccccc2C(=O)N1c1ccc(NC(C)=O)cc1	2
CCOCCCn1c(=NC(=O)c2cccnc2)c(C(=O)OCC)cc2c(=O)n3ccccc3nc21	-27&-24
COC(=O)C1=CN(C(C)C)C=C(C(=O)OC)C1c1cccc(OC)c1	11

# Some of the entries above, set out differently:
# Sequence of screens – SENP8 block-1 | SENP8 block-2 | SENP7 block | NALP3 yeast inh | SENP1 inh | HKDC1 inhibitor | PfG6PD inh | SENP6 inh
CCCCn1c(SCC(=O)Nc2cccc(OC)c2)nc2ccc(N3CCOCC3)cc2c1=O
 : 3 | -252 | 15 | -13 | -48 | 11 | 13 | -10
COC(=O)c1ccc(C(=O)OC)c(N)c1
 : 3 | / | 11 | 9 | / | / | / | 24

# Next compounds follow.
SMILES,SENP8 block-1,SENP8 block-2,SENP7 block,NALP3 yeast inh,SENP1 inh,HKDC1 inhibitor,PfG6PD inh,SENP6 inh
N#CC(C(=O)NC1CC1)c1nc2ccccc2nc1N1CCCC1 (stereo unspecified),-3,-493,15,25,-18,5,3,5
O=C(c1cc2c(ccc3ccccc32)oc1=O)N1CCN(CCO)CC1,8,-432,-7,1,-28,-4,3,-5
Nc1nnc(-c2cc3ccccc3oc2=O)s1,-15,-484,5,-12,-16,-9,12,-12
C[C@H](O)C(=O)C1=Nc2c(nc(N)[nH]c2=O)NC1,-9,-376,-5,9,-60,1,-6,4
CC(C)Nc1oc(-c2cccc3ccccc23)nc1C#N,-19,-276,-7,-5,-28,-1,7,-7
CC1CC(C)CN(CC(=O)N2CCc3[nH]c4ccccc4c3C2)C1 (stereo unspecified),-2,-47,-2,20,-24,0,5,-1
Cc1ccc(Cn2c(=S)[nH]c3ccc(N4CCOCC4)cc3c2=O)o1,-7,-257,2,6,-38,14,50,2
CCN1CCc2nc(NC(=O)c3ccc4c(c3)OCCO4)sc2C1,8,-293,14,9,-24,2,9,-7
O=c1[nH]c2cc3c(cc2cc1CN(CCCO)Cc1nnnn1Cc1ccc(F)cc1)OCO3,5,-435,-5,19,-19,-3,-3,19
Cn1c(C(=O)N2COCC2(C)C)cc2c(=O)n3ccccc3nc21,1,-277,-1,10,-82,-5,-17,1
N#CC1=C(N)C2=C(N3CCCCC3)CCCC2C1(C#N)C#N (stereo unspecified),15,-22,6,-2,-6,8,11,20
COc1ccc(Cl)cc1-c1nc(-c2ccc(NC(=O)c3ccncc3)cc2)no1,1,20,-1,3,-1,-2,-7,7
